# Source: PubChem BioAssay (several laboratories)
# eIF4H FP inh – inhibitors of RNA binding by human eIF4H; Q15056; eIF4H fluorescence polarization binding assay; inhibition, % at 35 µM; 290,000 tested, 0.94% active; AID 2012;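 active means 50% or more with normal probe brightness, or confirmed in later tests; inconclusive means above 50% with abnormal brightness, or retests that disagree; inactive means below 50% or failed in later tests; about a fifth of its hits are not listed in these tables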;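 further: calls also rest on retests at 20 µM and on dose response follow-up; 0% = protein and probe with vehicle and 100% = probe without protein; strong numbers were not always called active; many hits fall short of the cut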
# HIV Env fusion – blocks HIV Env-driven cell-cell fusion; HeLa-JRFL Env/CEM21 cell fusion, luciferase; inhibition, % at 12.3 µM; 360,000 tested, 1.1% active; AID 651610;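 active means mean replicate inhibition score of at least 50 and every replicate individually at or above 50; inconclusive means only one of the two criteria met; inactive means mean below 50 and not all replicates reaching 50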;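 further: 0% = plate neutral controls and 100% = maraviroc near 300 nM; one replicate is shown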
# UUG fidelity – yeast start codon fidelity modulation | AID 602363 | S. cerevisiae UUG-firefly luciferase reporter, luminescence/redox ratio | activity score, % at 18.7 µM | 350,000 tested, 0.13% active;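 active means replicate mean at a twofold rise or more, about +100% in these data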;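 further: firefly luciferase made from a UUG start codon reports start codon fidelity; reporter light over untreated wells divided by growth signal over untreated wells; some hits fall short of that in this replicate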
# CSC inhib – blocks cancer stem cells. inhibition, % at 7.5 µM. AID 2717. 300,000 tested, 1.1% active. cancer stem cell-like cells viability, luminescence;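 active means mean at 75% or more and at least half the replicates too; inconclusive means mean and replicates disagree; tested in HMLE shEcad cells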;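 further: 0% = median of negative and 100% = median of positive control wells; the first replicate is given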
# PABP FP inh – blocks human PABP binding to poly(A) RNA; P11940; fluorescence polarization; inhibition, % at 35 µM; 290,000 tested, 1% active; AID 2014;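 active means 50% or more with normal probe brightness, or confirmed in later tests; inconclusive means above 50% with abnormal brightness, or retests that disagree; inactive means below 50% or failed in later tests; about a fifth of its hits are not listed in these tables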;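 further: calls also rest on retests at 20 µM and on dose response follow-up; controls were probe without protein and protein plus probe with vehicle; some compounds called inactive have numbers as strong as hits; many hits fall short of the cut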
# Target sequence (P11940 whole entry, looked up): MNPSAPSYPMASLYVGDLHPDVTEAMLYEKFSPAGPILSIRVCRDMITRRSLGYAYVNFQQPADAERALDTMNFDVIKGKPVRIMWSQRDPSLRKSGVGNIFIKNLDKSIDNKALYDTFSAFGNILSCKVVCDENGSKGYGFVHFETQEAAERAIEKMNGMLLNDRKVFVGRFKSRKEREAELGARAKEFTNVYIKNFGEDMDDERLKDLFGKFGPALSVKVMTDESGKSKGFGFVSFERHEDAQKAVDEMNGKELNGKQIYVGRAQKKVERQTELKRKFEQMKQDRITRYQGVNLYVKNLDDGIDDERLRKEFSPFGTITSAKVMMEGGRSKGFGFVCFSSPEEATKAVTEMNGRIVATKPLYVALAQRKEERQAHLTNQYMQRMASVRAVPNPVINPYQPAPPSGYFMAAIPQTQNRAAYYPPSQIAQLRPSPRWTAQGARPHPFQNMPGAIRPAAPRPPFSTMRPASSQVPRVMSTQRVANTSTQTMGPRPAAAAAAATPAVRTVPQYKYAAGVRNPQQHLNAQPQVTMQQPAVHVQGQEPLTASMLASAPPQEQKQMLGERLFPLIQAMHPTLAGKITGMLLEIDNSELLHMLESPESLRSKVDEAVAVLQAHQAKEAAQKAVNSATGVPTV
# Rce1 inh – inhibitors of yeast Ras-converting enzyme; Q03530; yeast membranes, quenched prenylated peptide cleavage fluorescence; calls only; 290,000 tested, 0.27% active; AID 2563;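 active means fall in fluorescence gain of 50% or more versus controls, with final raw signal at or below 3038400; inconclusive means same 50% fall but final raw signal above 3038400; inactive means fall in fluorescence gain under 50%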;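 further: plate controls were neutral control wells for no effect and wells lacking membranes for full effect; tested at 10 µM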
# MT1-MMP act inh – blocks activation of human MT1-MMP. AID 651647. HT1080 RFP-PRO-GFP cells, GFP/RFP ratio fluorescence, overnight; percent of plate control window, DMSO zero. 360,000 tested, 0.061% active. GFP/RFP ratio change, % at 20 µM;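 active means GFP/RFP ratio change of at least 30% with cell ATP level not reduced by more than half and red fluorescence within 50% of control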; further: strong numbers were not always called active
#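 system = RFP-PRO-GFP reporter HT1080 cells | dosing = 20 µM single dose, 1% DMSO | timing = overnight cell settling, then overnight compound exposure, 37 °C, 5% CO2 | read-out basis = GFP/RFP fluorescence ratio | controls = DMSO and RFP-L50D-GFP cell wells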
# eIF4H FP inh retest – further read-out of eIF4H FP inh, marked with its call; inhibition, %; compound at 20 µM; confirmation average;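 mean of two retest wells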
# PABP FP inh retest – further read-out of PABP FP inh, marked with its call; inhibition, %; compound at 20 µM; confirmation repeats;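 mean of two retest wells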
# MT1-MMP act inh RFP – further read-out of MT1-MMP act inh, marked with its call; RFP signal change, %; measured here: RFP expression control read;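 0 = vehicle wells; hits needed this value within 50% of zero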
# * marks the source's active call; other numbers are inactive results; i = inactive; ? = inconclusive; . = no result given; & = joins results of further samples.
SMILES,eIF4H FP inh,HIV Env fusion,UUG fidelity,CSC inhib,PABP FP inh,Rce1 inh,MT1-MMP act inh,MT1-MMP act inh RFP,others
CCN1CCN(c2c(C=O)c(Cl)nc3ccc(OC)cc23)CC1,-1.3,10.9,-12.9,-16.0,-0.2,i,-9.4,-3.3,
CCOC(=O)N1CCN(Cc2nc3c(c(=O)n(C)c(=O)n3C)n2Cc2cccc3ccccc23)CC1,3.1,.,-17.9,-11.8,0.0,i,-0.6,1.6,
O=C(N/N=C/c1cccc(Oc2ccc([N+](=O)[O-])cc2[N+](=O)[O-])c1)c1cncc(Br)c1,6.5,.,0.5,16.3,-4.1,i,2.7,-12.8,
Cc1cc(C)c(OCC(=O)OCC(=O)N2CCN(C(=O)c3ccco3)CC2)c(C)c1,.,-2.7,.,-12.9,.,i,-1.0,-11.0,
CCc1ccc(-c2cn3nc(-c4ccccc4)cnc3n2)cc1,2.4,-2.1,.,7.6,3.4,i,-0.4,-0.1,
CC1CC(=O)N(Cc2ccccc2)c2ccccc2N1C=O (configuration not stated),-4.8,-36.3,-10.2,-0.4,-2.2,i,3.4,-0.4,
CCN(C[C@H]1N[C@@](Cc2ccccc2)(C(=O)OC)[C@H]2C(=O)N(C)C(=O)[C@@H]12)S(=O)(=O)c1ccc(C(F)(F)F)cc1,.,-53.2,-10.2,.,.,.,2.0,-0.5,
C[C@@H](NC(=O)c1[nH]cnc1C(=O)Nc1cccc(Cl)c1)c1ccccc1,.,1.9,-9.7,17.1,.,.,6.5,-0.2,
CCOC(=O)c1c(N)sc2c1C1CCN2CC1,-1.2,.,-23.2,1.6,5.3,i,-2.7,3.2,
CC1CCCN(CC(=O)NNC(=O)COc2ccc(Br)cc2)C1 (configuration not stated),.,.,-1.6,7.3,.,.,0.3,3.9,
COc1ccc(S(=O)(=O)N2CCOCC2)cc1NC(=O)COc1cccnc1[N+](=O)[O-],6.1,4.7,.,-2.7,-4.0,i,-0.6,4.1,
Nc1nnc(SCC(=O)Nc2ccccc2)s1,-0.7,-34.1,.,-10.4,6.2,i,1.2,-0.5,
COc1cc(-c2nc3ccc(C)cn3c2NCc2ccccc2)ccc1SC1CCCCC1,.,21.7,-2.9,28.7,.,i,3.6,-19.3,
CCOc1ccc(N2C(=O)CC(SC(=NC)Nc3cccc(OC)c3)C2=O)cc1 (configuration not stated),3.6,-0.4,0.2,-7.3,2.3,i,2.4,0.9,
Cc1nn2c(N3CCOCC3)cc(C(C)C)nc2c1-c1ccccc1,1.3,1.0,-2.3,19.5,-3.4,i,0.1,0.9,
CN(C)c1ccc(/C=N/N2CCN(Cc3ccccc3Cl)CC2)cc1,-2.2,-3.4,-23.2,31.6,9.5,i,-0.6,-5.0,
C=CCn1c(NCc2ccc3c(c2)OCO3)nc2ccccc21,-13.2,.,-13.7,.,-5.0,i,6.3,3.7,
COc1ccc(-c2cc(NC(=O)c3cncn3-c3ccccc3)ccc2OC)cc1,-10.4,24.5,-8.2,-6.4,8.8,i,-5.7,-4.6,
Cc1cc(-c2[nH]nc3c2C(c2ccsc2)C(C#N)=C(N)O3)c(C)s1 (configuration not stated),9.9,.,.,14.4,13.9,i,-4.0,-3.5,
COc1ccc(N(CC(=O)NCCC(C)C)C(=O)c2snc(C(=O)NC3CCCCC3)c2N)c(OC)c1,-7.6,7.0,0.2,.,3.2,i,-5.9,-6.1,
CC(O)C(=O)N/N=C/c1cccc(Cl)c1Cl (configuration not stated),6.5,-241.5,-13.8,.,-7.4,i,-2.0,0.8,
O=C(Nc1ccccc1-c1nc2ccccc2[nH]1)c1sc2ccccc2c1Cl,2.4,.,.,22.8,7.0,i,.,.,
COc1ccc(C(=O)Oc2cccnc2)cc1OC,-6.7,-44.8,-22.9,-14.3,5.4,i,0.5,6.6,
S=C(Nc1cc(Cl)ccc1Cl)Nn1cnnc1,-4.7,-32.5,-21.6,10.8,2.4,i,-0.6,0.1,
CCCCCC(=O)Nc1c(-c2cccs2)c(=O)c2ccccc2n1C,4.2,-63.3,-5.8,-2.0,-1.2,i,-1.8,-4.6,

# Four consecutive compounds already listed, quoted:
SMILES,eIF4H FP inh,HIV Env fusion,UUG fidelity,CSC inhib,PABP FP inh,Rce1 inh,MT1-MMP act inh,MT1-MMP act inh RFP,others
O=C(Nc1ccccc1-c1nc2ccccc2[nH]1)c1sc2ccccc2c1Cl,2.4,.,.,22.8,7.0,i,.,.,
COc1ccc(C(=O)Oc2cccnc2)cc1OC,-6.7,-44.8,-22.9,-14.3,5.4,i,0.5,6.6,
S=C(Nc1cc(Cl)ccc1Cl)Nn1cnnc1,-4.7,-32.5,-21.6,10.8,2.4,i,-0.6,0.1,
CCCCCC(=O)Nc1c(-c2cccs2)c(=O)c2ccccc2n1C,4.2,-63.3,-5.8,-2.0,-1.2,i,-1.8,-4.6,

# Next structures:
SMILES,eIF4H FP inh,HIV Env fusion,UUG fidelity,CSC inhib,PABP FP inh,Rce1 inh,MT1-MMP act inh,MT1-MMP act inh RFP,others
CCOC(=O)c1ccc(N2C(=O)c3n[nH]c(-c4ccco4)c3C2c2cccc([N+](=O)[O-])c2)cc1 (configuration not stated),4.8,5.1,-7.5,-3.9,8.2,i,-1.5,-13.1,
Cc1cc2nccc(-c3ccc(Cl)cc3Cl)n2n1,1.0,9.2,-13.4,-5.4,3.7,i,2.2,1.1,
CCOc1ccccc1OCc1nn2c(COc3ccccc3)nnc2s1,-7.3,9.2,-19.0,-12.3,2.1,i,1.6,2.3,
Cc1nc2ccc(Cl)cn2c1[N+](=O)[O-],.,0.2,-10.8,.,.,.,4.5,1.8,
COc1ccc(-c2nc(CS(=O)CC(=O)NC3CCCCC3)c(C)o2)cc1OC (configuration not stated),-10.3,.,-6.9,-10.0,5.8,i,0.7,4.2,
CCOc1ccc(NC(=O)CSc2nnc(C34CC5CC(CC(C5)C3)C4)n2C)cc1,-5.8,31.1,-17.1,.,-7.1,i,4.1,-1.2,
COc1ccc(C(=O)NCCc2c[nH]c3ccccc23)cc1S(=O)(=O)N1CCOCC1,-9.5,.,3.0,-0.3,5.0,i,-0.3,0.7,
COC(=O)c1ccc[n+](CC(=O)c2ccc(Br)cc2)c1,60.1,-25.9,-3.5,.,-3.5,i,-7.8,-0.5,eIF4H FP inh retest=-13.8;PABP FP inh retest=11.7
Cc1cn2c(N)c(/C=C3\C=Nc4ccccc43)c(=O)nc2s1,17.3,-13.3,.,-4.6,19.1,i,-0.9,3.3,
COc1ccc(CC(=O)NC2CCN(Cc3nnnn3C(C)(C)C)CC2)cc1OC,-11.1,24.2,-11.4,-7.8,12.0,i,3.0,1.7,
O=C(Nc1cc(Cl)cc(Cl)c1)c1cnn2cccnc12,-21.9,-70.4,.,-17.7,34.2,i,1.6,-0.9,
O=C(N/N=C/c1ccccn1)c1ccccc1,4.4,.,-21.1,5.9,-5.9,i,4.4,3.2,
CC1(C)CC(=O)C(C(=O)Cc2ccccc2[N+](=O)[O-])C(=O)C1,-4.5,-32.7,-21.0,2.0,-2.2,i,-2.2,1.9,
Cc1cc2oc(=O)cc(CN3CCCC3)c2cc1Cl,.,-0.8,-5.2,.,.,.,3.6,9.0,
Nc1cc(C(=O)O)c(N)c2c1C(=O)c1ccccc1C2=O,?,.,.,17.8,?,i,1.6,8.4,
Cc1nc2c3cc(Cl)ccc3n(CCN3CCOCC3)c2s1,2.3,3.0,.,-9.5,-9.5,i,0.5,-6.6,
CN(C)C(=O)c1ccc(NC(=O)c2cccc(S(=O)(=O)N3CCCc4ccccc43)c2)cc1,.,29.6,.,.,.,i,-10.7,-22.5,
Cc1ccc(S(=O)(=O)/C(C#N)=C/c2c(N3CCC(C(N)=O)CC3)nc3ccccn3c2=O)cc1,-3.9,-133.8,-5.4,.,-7.7,i,-1.0,2.3,
CCCCn1c(NS(=O)(=O)c2ccccc2)c(S(=O)(=O)c2ccc(C)cc2)c2nc3ccccc3nc21,-2.7,33.4,.,36.6,-1.7,i,-12.3,0.7,
O=C(NNC1=NCCC1)C1CC1,1.6,6.2,-3.1,-11.5,-7.8,i,0.3,3.0,
COc1ccc(CN2CCNC(=O)C2CC(=O)NCCc2nc(C)c(C)s2)cc1C (configuration not stated),7.5,22.1,6.3,-8.6,2.3,i,-1.1,5.5,
O=C(NCc1ccncc1)C(=O)Nc1nc2ccccc2s1,-4.7,3.1,.,-2.1,-13.4,i,2.4,3.5,
O=C(OCCOCCN=C1NS(=O)(=O)c2ccccc21)c1ccccc1,-5.1,-2.4,6.9,-10.4,-6.2,i,1.1,5.5,
O=C(OCc1cc2ccccc2[nH]c1=O)C1CCCO1 (configuration not stated),0.7,-158.2,-14.4,1.4,5.6,i,-2.3,3.9,
COc1ccc(C#Cc2cnc3c(c2)C(=O)N([C@H](C)CO)C[C@H](C)[C@@H](CN(C)C(=O)Nc2cccc(OC)c2)O3)cc1,.,-32.6,0.6&-8.0&-0.8,.,.,.,-0.7,4.1,
SMILES,eIF4H FP inh,HIV Env fusion,UUG fidelity,CSC inhib,PABP FP inh,Rce1 inh,MT1-MMP act inh,MT1-MMP act inh RFP,others
CC1(C)C(c2ccccc2)=NC(c2ccccc2)N1O (configuration not stated),26.8,-18.7,1.9,0.8,49.9,i,0.6,-1.4,
COc1ccc(C(=O)c2sc(Nc3ccccc3)nc2N)cc1,-5.0,-21.5,-10.6,.,1.6,i,-10.1,-16.8,
Cc1ccc(C(=O)NCCN2CCCC2)cc1,-4.1,.,-15.8,12.5,4.2,i,-3.2,4.0,
COc1cccc(-n2c(CNC(=O)OC(C)(C)C)n[nH]c2=S)c1,-3.0,-17.1,-23.7,9.9,-6.7,i,1.5,2.5,
CCc1nc2c(OCc3ccc(Cl)cc3)cccn2c1N(C=O)Cc1ccc(OC)cc1,.,41.7,-15.5,.,.,.,-12.0,-19.5,
CCCCOc1cccc(NC(=O)CSc2nccn2C)c1,-2.1,-8.2,-12.6,-15.9,4.9,i,2.1,-0.4,
CC(C)=Cc1oc2ccc([N+](=O)[O-])cc2c1N1CC(C)OC(C)C1 (configuration not stated),11.1,25.8,.,-9.0,-3.1,i,-2.5,-0.3,
O=CNc1cc2c(cc1Br)-c1ccccc1C2O (configuration not stated),.,i,-17.2,.,.,.,5.2,-0.5,
C=CCn1c(SCC(=O)N(C(C)CC)C2CCS(=O)(=O)C2)nc2ccccc2c1=O (configuration not stated),.,17.7,-5.5,.,.,.,-0.3,-1.3,
CN(C)c1ccc(/C=C/c2cc[n+](C)cc2)cc1,92.6,.,.,-0.7,12.0,i,-66.8,90.7,eIF4H FP inh retest=-13.4;PABP FP inh retest=-41.7
CC(NC(=O)COC(=O)c1cc2ccccc2cc1O)c1ccccc1 (configuration not stated),.,0.9,-10.1,.,.,.,4.4,4.6,
Cc1ccc(-n2c([C@@H]3C[C@H]3c3ccccc3)n[nH]c2=S)cc1,6.1,2.7,.,-14.0,-6.5,i,6.6,5.2,
O=C(Nc1ccc(Cl)cc1)N1CCN(c2ncccn2)CC1,4.5,-5.8,3.9,-5.8,-3.5,i,0.1,-2.1,
CC(Oc1ccc(Cl)cc1Cl)C(=O)/C=C/N(C)C (configuration not stated),5.6,-29.9,-7.4,-2.3,14.9,i,-4.4,-0.2,
NC(=O)c1nn(-c2cccc(Cl)c2)c(=O)cc1O,0.1,-4.9,-14.1,-6.0,6.5,i,7.1,7.1,
N#Cc1c(NC(=O)COC(=O)c2ccc(O)cc2O)sc2c1CCC2,.,-1.8,-15.6,-11.2,.,.,-2.1,-0.6,

# An excerpt, so the mix of outcomes need not match the whole.
